# VACV mCherry inh: qHTS for Stage-Specific Inhibitors of Vaccinia Orthopoxvirus: mCherry Reporter Primary qHTS; Vaccinia virus mCherry reporter infection, fluorescence; about a quarter of the inactives have no number; Potency, µM (top dose mostly 36.5 µM), inactives show at the top dose activity change, negative = inhibition, most hits filed as inhibitors; 310,000 tested, 0.63% active; AID 720579, 2013; active = well fitted inhibition curve with a large enough effect; inconclusive = small, poorly fitted or top-dose-only effect; inactive = no such curve, though single readings can be large or run the other way; tested in A549 cells; note: nearly all actives have a fitted effect of over 35% in size; inactives centre near -10
# VACV Venus inh: qHTS for Stage-Specific Inhibitors of Vaccinia Orthopoxvirus: Venus Reporter Primary qHTS. Vaccinia virus Venus reporter expression, fluorescence. Potency, µM (series often up to 36.5 µM), without a hit: at the highest dose activity change, negative = inhibition, most hits filed as inhibitors. 330,000 tested, 0.46% active. AID 720580, 2013; active means well fitted inhibition curve with a large enough effect; inconclusive means small, poorly fitted or top-dose-only effect; inactive means no such curve, though single readings can be large or run the other way; tested in A549 cells; note: nearly all actives have a fitted effect of over 30% in size; inactives centre near -10
# Starred values were filed as active, the others as inactive; i = inactive; u = inconclusive; x = no result given; [ ] = dose if it differs, or a comment. % is set by controls: 0 for no effect and ±100 for the full control effect; potency is the fitted concentration of half-maximal effect.
# Second line of a record – VACV mCherry inh, VACV Venus inh
1) Nc1nonc1-n1nnc(C(=O)N/N=C/c2ccncc2)c1-c1cccs1
  -18%, -5%
2) O=C(CCN1C(=O)c2ccccc2S1(=O)=O)Nc1ccc(F)cc1F
  i, -13%
3) Cc1ccc(SC2CC(=O)N(c3ccc4c(c3)OCCO4)C2=O)cc1 (stereo not given)
  -2%, -5%
4) COc1ccc(-n2ccnc2SCC(=O)NCc2ccco2)c(OC)c1
  -5%, 0%
5) O=C(O)CCC/C=C\C[C@@H]1[C@@H](/C=C/[C@@H](O)COc2cccc(Cl)c2)[C@H](O)C[C@@H]1O
  -18%[3.33 µM], -15%[3.33 µM]
6) COc1ccccc1NC(=O)c1ccccc1NS(C)(=O)=O
  x, -12%
7) Cc1ccccc1C1(CC(=O)N2CC3(C)CC2CC(C)(C)C3)CC(=O)N(Cc2cccnc2)C1=O (stereo not given)
  -15%, -11%
8) O=C(NCc1ccccc1)c1ccc(NC(=O)N2CCSc3ncccc32)cc1
  -10%, -10%
9) O=C1c2ccccc2C(Nc2ccc(Cl)cn2)N1c1cccnc1 (stereo not given)
  -7%, -14%
10) CCC(C)NC(=O)C1=CC(c2ccc3c(c2)OCO3)=NS(=O)(=O)N1C (stereo not given)
  2%, -2%
11) Cc1ccc(OCCSc2nc3ccccc3n2CC(=O)O)cc1
  -23%, -11%
12) Cc1ccc(-n2c(SCC(=O)OC(C)C)nnc2-c2ccncc2)cc1
  x, -4%
13) O=C(NC1CCCCC1)c1ccc2c(c1)N(Cc1ccccc1)C(=O)c1ccccc1S2
  -18%, -8%
14) COc1cccc(NC(=O)CN(C)C(=O)C(CCSC)NC(=O)c2ccco2)c1 (stereo not given)
  -10%, -1%
15) CC(=O)c1ccc(NC(=S)N2CCCC(CO)C2)cc1 (stereo not given)
  -7%, -6%
16) N#Cc1ccccc1S(=O)(=O)N1CCN(C(=O)c2cccc(S(=O)(=O)N3CCCC3)c2)CC1
  -18%, -15%
17) CCCc1c(C)nn(C(=O)/C(C#N)=N/Nc2ccccc2[N+](=O)[O-])c1C
  -2%, -18%
18) O=C(O)CCc1nc2ccccc2n(CCc2ccccc2)c1=O
  x, -21%
19) O=C(C1CCC(=O)N(C2CC2)C1)N(CCO)Cc1ccccc1 (stereo not given)
  -8%, -5%
20) CCOC(=O)[C@H]1[C@H]2COc3ccc(Br)cc3[C@@H]2N2C(=O)c3cc(Br)ccc3NC(=O)[C@@]12C
  -6%, u
21) COc1ccccc1N1CCN(C2CCCN(C(=O)CCn3cncn3)C2)CC1 (stereo not given)
  i, -8%
22) C[C@@H]1CN([C@@H](C)CO)C(=O)Cc2cc(NC(=O)Nc3ccc4c(c3)OCO4)ccc2O[C@@H]1CN(C)C(=O)NC1CCCCC1
  i, -12%
23) CN(C)CCN(Cc1ccco1)C(=O)c1cc2c(s1)-c1ccccc1OC2
  -15%[7.34 µM], -9%[7.34 µM]
24) COc1cccc(CN(C)CC(=O)Nc2ccccc2C(C)C)c1
  -1%, -2%
25) Cc1cccc(-c2nc3c(c(SCC(=O)N(C)C)n2)CCCC3)c1
  u, -25%
26) CCC(=O)NNc1ccc(Br)cc1
  u, -14%
27) Cc1ccc(C2(C)NC(=O)N(CC(=O)Nc3ccc4c(c3)OCO4)C2=O)cc1 (stereo not given)
  -28%, -21%
28) Cc1ccc(NC(=O)C(=O)NCC2(c3ccccc3)CCCC2)cc1Cl
  -10%, -9%
29) S=c1[nH]nc(-c2ccccc2)o1
  -15%, -5%
30) CCC(C)(C)n1nnnc1C(c1ccc(C)cc1)N1CCN(Cc2cccnc2)CC1 (stereo not given)
  x, -19%
31) Cc1cccc(-c2nnc(NC(=O)c3ccc(N4C(=O)CCC4=O)cc3)s2)c1
  26%, -3%
32) COc1ccc(NS(=O)(=O)c2cccc(C(=O)N3CCCCCC3)c2)cc1
  -24%, -19%
33) Cc1ccc2c(c1)c1c(c(=O)n(-c3ccccc3)c(=O)n1CC(=O)NCC1CCCO1)n2C (stereo not given)
  -5%, 2%
34) O=C(N/N=C/c1coc2ccccc2c1=O)c1cccc([N+](=O)[O-])c1
  3%, 2%
35) Cc1nn(-c2ccc(F)cc2)c(C)c1CN1CCN(Cc2ccccc2)C(CCO)C1 (stereo not given)
  i, -11%
36) COc1ccc(C2/C=C\CN(Cc3ccncc3)CC(=O)N2Cc2ccc(F)cc2)cc1 (stereo not given)
  i, -15%
37) CCOC(=O)C1CCN(CCC(=O)Nc2ccc(Br)cc2)CC1
  -10%, -12%
38) COc1ccc(-c2cccc(NC(=O)c3cccs3)c2)nn1
  -2%, -17%
39) O=C(CN1C(=O)S/C(=C/c2ccc(N3CCOCC3)cc2)C1=O)N1CCOCC1
  i, -8%
40) COc1cccc(C(=O)N2CCN(C3CCC(c4ccccc4)CC3)CC2)c1 (stereo not given)
  x, -26%
41) CN1CCN(c2oc(-c3cccs3)nc2S(=O)(=O)c2ccccc2)CC1
  7%, -8%
42) CCCN(CCC)C(=O)CSc1nc2sc3c(c2c(=O)n1-c1ccccc1)CCN(C(C)=O)C3
  -9%, -2%
43) Cc1nn(C)cc1S(=O)(=O)N1CCN(c2cccc(Cl)c2)CC1
  -5%, -15%
44) CC(=O)Nc1ccc(C2=NN(C)C(=NCc3ccccc3)SC2)cc1
  -16%, -15%
45) Cc1cc(C)cc(-n2c(SCC(=O)NC3CCCCC3)nc3c([nH]c4ccccc43)c2=O)c1
  -10%, -10%
46) Cc1ccc2nc(NC(=O)CCNS(=O)(=O)c3cccs3)sc2c1
  u, u
47) COc1cc(C2C(C(=O)Nc3ccccc3)=C(C)Nc3nc(SCc4ccccc4F)nn32)cc(OC)c1OC (stereo not given)
  -18%, -12%
48) CCOC(=O)Cn1cc(C(=O)c2ccco2)c2ccccc21
  -10%, -5%
49) O=C(Nc1nc2ccccc2[nH]1)c1ccc(OC(F)F)cc1
  -17%, -23%
50) CCCSc1nnc(CSc2nc3ccccc3s2)n1-c1ccccc1
  -14%, -26%
51) Cc1cccc[n+]1CC(=O)c1ccc([N+](=O)[O-])cc1
  -21%, -5%
52) Cc1nn(C(C)(C)C)c(OC(=O)c2ccc3c(c2)OCO3)c1Sc1ccccc1
  u, u
53) Cc1cc(-c2nnc(CCC(=O)NCc3ccc(F)c(F)c3)o2)no1
  i, 5%
54) Cc1ccc(-c2nn(C)c(=O)c3ccccc23)cc1CN1CCOCC1
  -5%, u
55) Cc1ccc(N2CC(C(=O)N(C)CC(=O)Nc3ccc(Cl)c(C(F)(F)F)c3)CC2=O)cc1 (stereo not given)
  u, u
56) COc1ccccc1OCCC(=O)OCC(=O)Nc1ccc(Br)cc1
  -2%, 1%
57) COc1ccc(N/C=C/C(=C(C#N)C#N)N(C)C)cc1
  i, -1%
58) CCCOc1ccc(C(=O)Nc2ccc(NC(=O)c3ccc(Br)cc3)cc2)cc1
  5%, 0%
59) CSc1ccccc1NC(=O)COC(=O)c1cnc(C)cn1
  i, -8%
60) Cc1oc2ccc(OCc3ccc(Br)cc3)cc2c1C(=O)O
  -1%, -10%

# Four of these compounds in a different format.
60. Cc1oc2ccc(OCc3ccc(Br)cc3)cc2c1C(=O)O
  VACV mCherry inh: -1%	VACV Venus inh: -10%

58. CCCOc1ccc(C(=O)Nc2ccc(NC(=O)c3ccc(Br)cc3)cc2)cc1
  VACV mCherry inh: 5%	VACV Venus inh: 0%

56. COc1ccccc1OCCC(=O)OCC(=O)Nc1ccc(Br)cc1
  VACV mCherry inh: -2%	VACV Venus inh: 1%

53. Cc1cc(-c2nnc(CCC(=O)NCc3ccc(F)c(F)c3)o2)no1
  VACV mCherry inh: i	VACV Venus inh: 5%

# Continued.
# Second line of a record – VACV mCherry inh, VACV Venus inh
61) CCN(CC)S(=O)(=O)c1cccc(C(=O)NC(C(=O)NCCc2ccccn2)C(C)C)c1 (stereo not given)
  -7%, 6%
62) Cn1c(N)c(C(=O)COC(=O)c2ccc3ccccc3c2)c(=O)n(C)c1=O
  i, -6%
63) c1ccc2c(CN3CCOCC3)csc2c1
  -5%, -1%
64) N#Cc1ccc(NC(=O)CN2C(=O)NC(Cc3ccccc3)C2=O)cc1 (stereo not given)
  -6%, 5%
65) CCCn1c(SCC(=O)Nc2ccc(NC(C)=O)cc2)nc2c1c(=O)n(C)c(=O)n2C
  i, -11%
66) CC1CCN(C(=O)c2ncn3c2c(=O)[nH]c2cccnc23)CC1
  i, -3%
67) CC1(C)CC(=O)C2=C(C1)N(N1CCOCC1)C(N)=C(C#N)C2c1cccs1 (stereo not given)
  -14%, 2%
68) Cc1ccc(C(CNS(=O)(=O)c2ccc(Br)cc2)N2CCN(C)CC2)cc1 (stereo not given)
  -20%, -27%
69) COc1ccc(C)cc1NC(=O)c1c(C(=O)Nc2cccc(C)c2C)sc2nc(C)cc(=O)n12
  2%, 6%
70) COc1ccc(NC(=O)c2cn(-c3ccccc3)nc2-c2ccncc2)cc1
  i, -12%
71) CC(=O)Nc1ccc(NC(=O)CSc2n[nH]c(-c3cccs3)n2)cc1
  -9%, -3%
72) O=C(c1ccc(NS(=O)(=O)c2ccccc2)cc1)N1CCN(Cc2ccc3c(c2)OCO3)CC1
  x, -16%
73) C=Cc1ccc(CSc2nc(-c3ccc(C)cc3)nc3c2Cc2c(CO)cnc(C)c2O3)cc1
  -15%, -18%
74) CCCNCc1cc(OC)c(OCC(=O)Nc2ccccc2)cc1Br
  i, -10%
75) COc1ccc(/C=C\c2onc(C)c2S(=O)(=O)N2CCC(C(=O)Nc3ccccc3OC)CC2)cc1
  -8%, -12%
76) CC(C)CCN1C(Nc2ccccc2)=NC[C@@H]1C
  -15%, -5%
77) CSc1ccccc1NC(=O)c1ccc([N+](=O)[O-])cc1
  -2%, -8%
78) CCCCNC(=O)c1nc(C2CCN(S(=O)(=O)c3c(F)cccc3F)CC2)oc1-c1cccc(C(F)(F)F)c1
  i, 6%
79) O=C(Cn1cc(S(=O)(=O)Cc2ccccc2F)c2ccccc21)N1CCOCC1
  i, 5%
80) O=C(N/N=C/c1cc([N+](=O)[O-])ccc1Cl)c1ccc2nc[nH]c2c1
  -15%, -7%
81) CCOC(=O)c1sc(NC(=O)CSc2ncn(-c3ccccc3)n2)nc1C
  3%, 13%
82) COc1cccc(CN(C)C(=O)c2cccc(S(=O)(=O)NCc3ccccc3)c2)c1OC
  -23%, -18%
83) O=C(c1cc(S(=O)(=O)N2CCCCC2)c(Cl)cc1N1CCOCC1)N1CCOCC1
  x, -4%
84) CC1CCN(S(=O)(=O)c2cc(C(=O)NCc3ccc(N(C)C)cc3)n(C)c2)CC1
  -9%, -6%
85) O=c1[nH]c(-c2ccccc2F)nc2c1sc(=S)n2Cc1ccccc1
  -28%, -27%
86) CC(C)(C)NC(=O)c1ccccc1NC(=O)C1CC(=O)N(C2CCCCC2)C1 (stereo not given)
  i, -9%
87) COc1cc(CNc2ncnc3c2ncn3[C@H]2CN(Cc3ccc(-c4ccccc4)cc3)C[C@@H](CO)O2)cc(OC)c1OC
  13µM*, u
88) CCn1ccnc1CN1CCN(CCC(C)C)C(CCO)C1 (stereo not given)
  -18%, -2%
89) CCOC(=O)c1c(C)[nH]c(C(=O)OCC(=O)N2CCCC2=O)c1C
  i, -14%
90) CCOc1ccc(OCC)c(NC(=O)CN(c2ccc(C)cc2)S(=O)(=O)c2c(C)noc2C)c1
  -25%, -24%
91) O=C1NC(=O)N(c2ccc(Br)cc2)C(=O)/C1=C/c1ccsc1
  i, -2%
92) Cc1cc(C)cc(C(=O)Nc2cccc(-c3nc4ncccc4o3)c2C)c1
  -15%, -8%
93) CCCNC(=O)c1ccc2c(=O)c(O)c(-c3ccc(Cl)c([N+](=O)[O-])c3)[nH]c2c1
  -3%, -6%
94) COCC(=O)N1CCCC(C)(C(=O)Nc2cccc(Oc3ccccc3)c2)C1 (stereo not given)
  i, -9%
95) CC(C)C[C@H]1CN([C@@H](CC(C)C)CN2CCC[C@@H]2CN2C(=O)C(=O)NC[C@@H]2Cc2ccccc2)C(=O)C(=O)N1CC1CCCCC1
  -6%, -27%
96) CC[C@](N)(CCC(=O)O)C(=O)O
  i, -11%
97) O=C(NCc1ccccc1)c1onc(CSc2ccc(F)cc2)c1C(=O)NCCCN1CCOCC1
  -25%, -18%
98) Cn1cccc1/C=C1\SC(=S)N(CC(=O)O)C1=O
  i, -5%
99) O=C(Nc1ccc([N+](=O)[O-])cc1)c1ccc(S(=O)(=O)N2CCCC2)cc1
  i, -7%
100) CCOC(=O)C(NC(=O)c1ccccc1)(N1CCCC1=O)C(F)(F)F (stereo not given)
  -10%, -11%

# A different layout for part of the listing above:
5) O=C(O)CCC/C=C\C[C@@H]1[C@@H](/C=C/[C@@H](O)COc2cccc(Cl)c2)[C@H](O)C[C@@H]1O
6) COc1ccccc1NC(=O)c1ccccc1NS(C)(=O)=O

screen / no.,5,6
VACV mCherry inh,-18%[3.33 µM],x
VACV Venus inh,-15%[3.33 µM],-12%

# (next part)
# Second line of a record – VACV mCherry inh, VACV Venus inh
101) c1ccc(CCC2CCCCN2Cc2nc(-c3ccc4c(c3)OCO4)no2)nc1 (stereo not given)
  i, -18%
102) Cc1noc(NC(=O)c2ccccc2)c1C#N
  i, -8%
103) O=C1c2ccccc2NC(c2ccccc2)N1NS(=O)(=O)c1ccccc1 (stereo not given)
  -21%, -23%
104) NC(C(=O)O)C1ON=C(Cl)C1O (stereo not given)
  -8%, -26%
105) O=C(Cc1cccs1)Nc1cc(SCCO)cc([N+](=O)[O-])c1
  -22%, -10%
106) Cc1ccc(-n2c(=O)c3c(c4cc(C)ccc4n3C)n(CC(=O)c3ccc(Cl)cc3)c2=O)cc1
  -7%, 7%
107) CCCOc1ccc(NC(=O)CC2C(=O)N(CC)C(=S)N2CCCN2CCN(Cc3ccccc3)CC2)cc1 (stereo not given)
  -29%, u
